# CatL block: inhibitors of human cathepsin L | purified cathepsin L, fluorogenic substrate, fluorescence | inhibition, %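 (tested at 10 µM)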 | 0.17% of 58,000 active; in the data active means inhibition above about 45%;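 further: 0% = enzyme with no compound and 100% = no enzyme blank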
# CatB block: blocks human cathepsin B protease activity; P07858; purified cathepsin B, fluorogenic substrate, fluorescence; inhibition, %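 (tested at 10 µM)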; 0.1% of 63,000 active; AID 453; in the data active means inhibition above about 21%;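 further: 0% = enzyme with no compound and 100% = no enzyme blank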
# CatS block: inhibitors of human cathepsin S; P25774; recombinant cathepsin S, AMC dipeptide fluorescence, pooled mixtures; inhibition, %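 (tested at 5 µM per compound within 10-compound mixtures)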; 0.06% of 62,000 active; in the data active means inhibition above about 32%, passing the limit was not always enough;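 further: 0% = enzyme without compound and 100% = blank without enzyme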
# CatG inh: inhibitors of human cathepsin G; 0.2% of 62,000 active; P08311; purified enzyme, AMC-tetrapeptide fluorescence, pooled mixtures; inhibition, % at 5 µM (by protocol);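 active means inhibition above 20% in each of the two mixture wells holding the compound; inactive means inhibition of 20% or less in either well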;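 further: 0% = enzyme control without mixture and 100% = blank lacking enzyme; strong numbers were not always called active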
# Target sequence (P08311 21-244 limits assumed): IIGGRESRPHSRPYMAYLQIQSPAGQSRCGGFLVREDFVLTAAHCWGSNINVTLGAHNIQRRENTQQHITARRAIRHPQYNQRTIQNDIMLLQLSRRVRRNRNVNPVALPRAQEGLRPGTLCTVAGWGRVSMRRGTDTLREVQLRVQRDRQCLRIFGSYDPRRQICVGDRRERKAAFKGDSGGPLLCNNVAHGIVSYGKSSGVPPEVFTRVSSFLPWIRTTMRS
# AP ELISA ortho: orthogonal test for alternative complement pathway inhibitors; Human serum alternative complement pathway, LPS-coated ELISA, C3 deposition; tested in compound mixtures; inhibition, % at 5 µM; 0.08% of 62,000 active; AID 1235;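 active means inhibition above 30% in each of the two pooled mixtures holding the compound, so the lower value exceeds 30%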;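 further: 0% = serum in Mg-EGTA without compound and 100% = EDTA serum blank; some compounds past the cut are filed as inactive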
#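 Assay system: Human serum alternative complement pathway, C3 deposition on LPS-coated wells | Incubation: 1 h serum-compound exposure at 37 °C | Doses: 5 µM per compound in ten-compound mixtures | Read-out: Percent inhibition | Technique: ELISA with HRP anti-human C3 antibody, TMB substrate, absorbance 450 nm | Replication: Two pool placements per compound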
# Starred values were filed as active, the others as inactive; x = no result given. An excerpt (hit frequency here may not be typical).
SMILES,CatL block,CatB block,CatS block,CatG inh,AP ELISA ortho
Cc1onc(-c2ccccc2)c1C(=O)n1nnc2ccccc21,0.3,-1.0,-4.4,13.1,9.3
CCN(CC)C(=O)C1=C(C)Nc2nnnn2C1c1cccnc1 (centres undefined),0.1,-0.8,5.1,2.5,16.2
Nc1ccc(S(=O)(=O)Nc2ncccn2)cc1,2.7,-1.9,0.9,5.2,2.5
CCN1C(=O)CSc2ccc(C(=O)NC3CCCCC3)cc21,25.7,6.5,0.5,5.3,8.5
CCOC(=O)Nc1cccc(NC(=O)c2cc(OC)cc(OC)c2)c1,2.1,7.0,-4.3,5.5,14.9
CC(C)c1nc(NCC2CCCO2)c(C#N)c2c1COC(C)(C)C2 (centres undefined),-53.2,6.4,-9.9,8.3,5.7
O=C(CSc1nc(-c2ccco2)cc(C(F)(F)F)n1)N1CCc2ccccc2C1,1.8,2.4,0.3,-2.5,-4.7
CCN1CCCC1CNS(=O)(=O)c1ccc(C(=O)Nc2ccccc2)cc1 (centres undefined),12.1,1.2,31.4,-0.2,10.6
Cc1cc(NC(=O)C2CC(c3cccc(Br)c3)=NO2)no1 (centres undefined),x,-2.0,-2.3,-0.6,-0.1
C=CCn1c(CCNC(=O)c2ccccc2F)nnc1SCC(=O)Nc1nc(C)cs1,6.5,4.8,5.3,-10.5,-8.6
COc1cc(C)c(Cl)c(C)c1S(=O)(=O)NCc1ccc2c(c1)OCO2,2.9,0.6,1.6,-2.0,16.7
O=C(CSc1nc(-c2ccco2)cc(C(F)(F)F)n1)Nc1ccc2c(c1)CCC2,x,-2.7,-0.7,0.7,2.5

# Single records, as listed above. Order of screens: CatL block, CatB block, CatS block, CatG inh, AP ELISA ortho
# `COc1cc(C)c(Cl)c(C)c1S(=O)(=O)NCc1ccc2c(c1)OCO2` is listed as 2.9, 0.6, 1.6, -2.0, 16.7
# `CCN1CCCC1CNS(=O)(=O)c1ccc(C(=O)Nc2ccccc2)cc1` (centres undefined) is listed as 12.1, 1.2, 31.4, -0.2, 10.6
# `Cc1onc(-c2ccccc2)c1C(=O)n1nnc2ccccc21` is listed as 0.3, -1.0, -4.4, 13.1, 9.3

# The listing continues:
SMILES,CatL block,CatB block,CatS block,CatG inh,AP ELISA ortho
Cc1sc2nc(CN3CCCC3)nc(N3CCN(S(=O)(=O)c4cccs4)CC3)c2c1C,21.0,1.0,6.0,8.3,4.3
COCCn1c(=NC(=O)CSC(C)=O)sc2cc(F)ccc21,-3.5,-1.0,-8.2,-7.0,12.9
Nc1nncn1C(=O)c1cc(Br)ccc1Cl,18.5,0.7,6.7,1.3,4.8
Cc1ccc(-c2nc3ccccc3c(=O)n2CCN2CCOCC2)cc1,-0.8,2.7,-3.7,4.3,25.7

# Random excerpt: six records from the list.
SMILES,CatL block,CatB block,CatS block,CatG inh,AP ELISA ortho
CCN1C(=O)CSc2ccc(C(=O)NC3CCCCC3)cc21,25.7,6.5,0.5,5.3,8.5
Nc1ccc(S(=O)(=O)Nc2ncccn2)cc1,2.7,-1.9,0.9,5.2,2.5
Cc1onc(-c2ccccc2)c1C(=O)n1nnc2ccccc21,0.3,-1.0,-4.4,13.1,9.3
CCN1CCCC1CNS(=O)(=O)c1ccc(C(=O)Nc2ccccc2)cc1 (centres undefined),12.1,1.2,31.4,-0.2,10.6
Nc1nncn1C(=O)c1cc(Br)ccc1Cl,18.5,0.7,6.7,1.3,4.8
C=CCn1c(CCNC(=O)c2ccccc2F)nnc1SCC(=O)Nc1nc(C)cs1,6.5,4.8,5.3,-10.5,-8.6

# High-throughput results deposited in PubChem BioAssay by PCMD.
